From PubChem BioAssay
E coli growth = inhibitors of Escherichia coli growth; OD600 absorbance (concentration not given with the values); 330,000 compounds, 0.21% hits; OD600, 23 h; active compounds read low;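 active = OD600 absorbance below the run mean of sample wells minus 3.6 SD, in any replicate, cut at about 0.56 in these data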;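 also: stock transfer was 300 nL into about 60 µL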
HNF4A DNA FP = change in binding of human HNF4 alpha to DNA | P41235 | HNF4a-FITC DNA binding, fluorescence polarization, 1 h | activity change, % at 10 µM | 360,000 compounds, 0.3% hits; in the data active = activity change above about 30%, passing the limit was not always enough;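 also: controls were the assay level and a saturating level of protein; the project sought stronger binding though the title names inhibitors; some compounds called inactive have numbers as strong as hits; positive values seem to mean higher polarization but the record does not say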
Target sequence (P41235 whole entry, looked up): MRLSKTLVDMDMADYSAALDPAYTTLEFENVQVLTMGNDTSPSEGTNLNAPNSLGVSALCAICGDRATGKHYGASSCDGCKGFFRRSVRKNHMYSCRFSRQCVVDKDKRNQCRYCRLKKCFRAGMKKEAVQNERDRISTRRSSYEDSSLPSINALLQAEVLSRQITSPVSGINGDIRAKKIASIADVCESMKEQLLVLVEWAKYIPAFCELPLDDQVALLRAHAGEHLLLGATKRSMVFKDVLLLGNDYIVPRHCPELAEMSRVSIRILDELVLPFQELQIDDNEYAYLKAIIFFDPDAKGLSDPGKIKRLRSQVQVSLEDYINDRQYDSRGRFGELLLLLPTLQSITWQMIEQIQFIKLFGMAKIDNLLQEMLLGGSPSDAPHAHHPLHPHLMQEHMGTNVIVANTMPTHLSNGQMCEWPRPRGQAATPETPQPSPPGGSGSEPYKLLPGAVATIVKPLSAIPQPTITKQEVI
B2AR ag = human beta-2 adrenergic receptor agonism by FAP. Am2.2-beta2AR cells, FAP receptor internalization, flow cytometry; reference of the scale not given here. response, % (concentration not given with the values). 340,000 compounds, 0.43% hits;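 active = response above a set limit, near 3 SD of response in nonfluorescent compounds, cut at about 42% in these data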;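 also: stock transfer was 100 nL into about 11 µL; a reference agonist was the positive control; negative values mostly stem from fluorescent compounds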
UCH37 DUB inh = blocks the human deubiquitinase UCH37 | Q9Y5K5 | purified proteasome/UCH37, Ub-AMC cleavage fluorescence | inhibition, % (test concentration not listed) | 330,000 compounds, 0.33% hits | AID 588478;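 active = mean of two replicates above 20%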;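 also: 0% = compound-free wells with enzyme and 100% = wells lacking proteasome; stock transfer was 100 nL into about 20 µL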
Target sequence (Q9Y5K5 whole entry, looked up): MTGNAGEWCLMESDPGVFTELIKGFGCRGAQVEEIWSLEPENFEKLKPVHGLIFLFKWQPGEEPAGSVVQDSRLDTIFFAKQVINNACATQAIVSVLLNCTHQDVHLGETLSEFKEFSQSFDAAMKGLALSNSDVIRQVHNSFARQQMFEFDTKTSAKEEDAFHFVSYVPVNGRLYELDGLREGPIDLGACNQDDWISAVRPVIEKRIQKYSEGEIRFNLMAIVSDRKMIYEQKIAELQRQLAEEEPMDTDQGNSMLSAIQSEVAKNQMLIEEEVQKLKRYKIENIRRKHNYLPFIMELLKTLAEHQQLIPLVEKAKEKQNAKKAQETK
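Assay system: Proteasome-bound UCH37. Buffer or medium: pH 7.4 Tris-HCl (50 mM) with ovalbumin, ATP-MgCl2, DTT. Incubation: 30 min preincubation with enzyme, 25 min cleavage at room temperature. Measured by: fluorescence, ex 355 nm, em 460 nm. Read-out basis: percent inhibition. Control set: wells without proteasome as full block, compound-free enzyme plus substrate as uninhibited.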
ALR inh = human ALR oxidase inhibition via reduced H2O2 | P55789 | purified ALR, DTT oxidation, H2O2 HRP-luminol luminescence | inhibition, % (no concentration beside the values) | 290,000 compounds, 3.8% hits | AID 485317;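 active = mean and each replicate at 75% or more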;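 also: stock transfer was 7.5 nL into about 7.5 µL; 0% = neutral wells and 100% = wells with inactivated enzyme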
Ecoli rRNA inh = inhibits bacterial ribosomal RNA function over humanized ribosomes; E. coli WT GFP vs humanized-ribosome RFP mutants, fluorescence, 24 h; active compounds read low; DMSO median 0, no signal -100; GFP signal change (wild-type ribosome), % (test concentration not listed); 350,000 compounds, 1.6% hits;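 active = significant combined selectivity score with lowered wild-type GFP, culture density cut under 30%, mutant RFP and density less affected; inactive = any of these conditions unmet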; also: one replicate is shown; some compounds called inactive have numbers as strong as hits
FGF22 binding = FGF22 (human) thermal shift binding; Q9HCT0; recombinant FGF22 thermal shift, SYPRO orange fluorescence; percent of sucrose octasulfate shift, DMSO zero; calls only at 9.99 µM; 340,000 compounds, 1.5% hits; AID 651658;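 active = melting point raised past a set limit in the mean and every replicate; three in four hits are not shown here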
Target sequence (Q9HCT0 whole entry, looked up): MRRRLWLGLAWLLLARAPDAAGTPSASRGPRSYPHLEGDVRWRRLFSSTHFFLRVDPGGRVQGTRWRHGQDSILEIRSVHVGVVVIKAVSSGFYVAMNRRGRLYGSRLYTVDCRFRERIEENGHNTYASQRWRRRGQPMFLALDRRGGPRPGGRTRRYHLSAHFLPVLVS
Ecoli rRNA inh OD600 = also measured in Ecoli rRNA inh; calls as there; OD600 change, %; measured here: OD600 growth;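 optical density of the mix in the first replicate; 0 = DMSO median and -100 = no signal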
Ecoli rRNA inh RFP = recorded beside Ecoli rRNA inh, whose call it bears; RFP signal change, %; measured here: RFP humanized mutant strains;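 first replicate; 0 = DMSO median and -100 = no signal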
Numbers without * were called inactive; i = inactive; nt = not tested or not shown; + = active, no number. Only part of the results is shown, so the mix of outcomes need not match the whole.

SMILES	E coli growth	HNF4A DNA FP	B2AR ag	UCH37 DUB inh	ALR inh	Ecoli rRNA inh	Ecoli rRNA inh OD600	Ecoli rRNA inh RFP	FGF22 binding
Cc1cc(C)c(S(=O)(=O)NC(C)C)c(C)c1-n1cnnn1	0.66	-0.7	-2	4.2	-21	9	7	-1.7	i
Cc1sc2nc3ccc(NCc4ccco4)nn3c(=O)c2c1C	0.78	-15	6	-136	nt	nt	nt	nt	nt
O=C(CC1CC2CCC1C2)Nc1nc(-c2ccccn2)cs1 (stereo not drawn)	0.69	6.3	5	3.9	-22	-45	-73	-9.4	i
Nc1ncnc2c1ncn2[C@@H]1O[C@H](CNC(=O)[C@@H](N)Cc2ccc(C(=O)c3ccccc3)cc2)[C@@H](O)[C@H]1O	nt	-1.8	nt	nt	nt	7	15	-0.1	i
COc1ccc2oc(=O)c(/C(C)=N/Nc3nc(-c4cc(C)ccc4C)cs3)cc2c1	nt	13	-1	nt	-3	-12	-24	-6.5	i
Cc1cc(C)n2c(SCC(=O)Nc3cc(S(=O)(=O)N(C)C)ccc3C)nnc2n1	0.72	3.4	-7	4.0	nt	8	10	2.6	i
CC(C)CC(=O)N1CCN(S(=O)(=O)c2ccc3ccccc3c2)CC1	0.61	13	-5	1.1	-23	-11	-8	5.5	nt
O=C(NCC(c1cccs1)N1CCOCC1)c1cnc(Cl)c(Cl)c1 (stereo not drawn)	0.7	3.4	13	-3.4	-3	1	8	-0.4	i
Cc1ccccc1CN1CCc2cc([N+](=O)[O-])ccc21	0.71	0.9	10	3.0	-14	-10	-25	-4.7	i
C[C@]12c3[nH]c4cc(-c5ccco5)ccc4c3CCN1C(=O)[C@@H](CC(=O)NCC13CC4CC(CC(C4)C1)C3)C[C@@H]2C(=O)N1CCOCC1	0.67	2.4	11	-17	nt	16	8	19	i
CN(C(=O)CSc1nc2ccccc2n1C)C1CCS(=O)(=O)C1 (stereo not drawn)	0.66	0.1	-3	0.0	-1	12	-6	3.4	i
O=C(OCC(=O)N1CCOCC1)c1cccc(S(=O)(=O)Nc2ccc(F)cc2)c1	0.66	-2.5	-1	-0.6	0	7	7	0.9	i
CCc1ccc2c(CN(C)Cc3ccc(OC(F)F)c(OC)c3)cc(=O)oc2c1	0.71	2.8	-3	4.7	nt	-9	-9	-1.3	i
COC(=O)c1cnc(Nc2nc(C(N)Cc3ccc(Cl)cc3)cs2)nc1C(F)(F)F (stereo not drawn)	nt	-0.1	nt	nt	nt	-27	-30	-8.6	i
O=C(c1cc(-c2cccc(Cl)c2)on1)N1CCN(c2ccccc2)CC1	0.66	1.0	8	3.0	nt	-3	7	-1.4	i

Full records as entered above. Screens in order: E coli growth | HNF4A DNA FP | B2AR ag | UCH37 DUB inh | ALR inh | Ecoli rRNA inh | Ecoli rRNA inh OD600 | Ecoli rRNA inh RFP | FGF22 binding
Cc1cc(C)n2c(SCC(=O)Nc3cc(S(=O)(=O)N(C)C)ccc3C)nnc2n1 across the screens: 0.72 | 3.4 | -7 | 4.0 | nt | 8 | 10 | 2.6 | i
O=C(CC1CC2CCC1C2)Nc1nc(-c2ccccn2)cs1 (stereo not drawn) across the screens: 0.69 | 6.3 | 5 | 3.9 | -22 | -45 | -73 | -9.4 | i
COC(=O)c1cnc(Nc2nc(C(N)Cc3ccc(Cl)cc3)cs2)nc1C(F)(F)F (stereo not drawn) across the screens: nt | -0.1 | nt | nt | nt | -27 | -30 | -8.6 | i

Following part
SMILES	E coli growth	HNF4A DNA FP	B2AR ag	UCH37 DUB inh	ALR inh	Ecoli rRNA inh	Ecoli rRNA inh OD600	Ecoli rRNA inh RFP	FGF22 binding
CCn1cc(C(=O)N2CCN(c3ccc(OC)cc3)CC2)c(=O)c2cc(S(=O)(=O)N3CCOCC3)ccc21	0.64	-1.7	2	2.5	51	3	-4	3.0	i
Cc1ccc(Cn2cc(S(=O)(=O)c3ccc(C(C)C)cc3)c(=O)c3cc4c(cc32)OCO4)cc1	0.75	-1.3	3	-1.6	nt	nt	nt	nt	nt
CC(C)CNC(=O)Cn1c(=O)c2c(ncn2CC(C)C)n(Cc2ccccc2)c1=O	0.7	0.4	-5	3.7	nt	23	17	2.1	nt
CCc1nnc2n1N=C(c1ccc(Cl)cc1Cl)CS2	0.69	1.2	2	0.6	-18	-11	-11	-1.1	i
CC(=O)Nc1ccc(-c2nc3ccccc3c(=O)o2)cc1	0.68	5.3	0	-293	35	13	13	0.1	i
CCC(C)NC(=O)c1ccc(CN2CCc3ccccc3C2)cc1 (stereo not drawn)	0.71	-1.8	11	1.5	-12	14	11	0.7	i
COc1ccc2c(Cl)c(-c3nnc4n3CCCCC4)sc2c1	0.75	0.2	-15	0.6	6	nt	nt	nt	nt
CC1CCN(CCCNC(=O)Cn2ncc3c([nH]c4ccccc43)c2=O)CC1	0.62	-0.4	1	-3.3	-24	15	2	2.6	i
Cc1ccccc1NC(=O)C1c2cccc[n+]2CC(=O)N1Cc1ccc2c(c1)OCO2 (stereo not drawn)	0.68	4.2	12	1.6	-12	20	10	4.4	i
O=C(/C=C/c1ccc(Cl)cc1Cl)NCCSc1ccccc1	0.67	1.3	0	5.4	-2	nt	nt	nt	nt
O=C(COC(=O)c1ccc(Cl)nc1)NCc1ccco1	0.73	-2.4	2	4.4	10	4	11	0.4	i
O=C(NC(=S)N1CCCCC1CO)c1cc(Br)ccc1Cl (stereo not drawn)	0.67	4.7	-4	5.0	nt	3	0	2.9	i
Cc1ccn2cc(-c3ccc(NS(=O)(=O)c4ccccc4)cc3)nc2c1	nt	0.7	1	nt	nt	-4	-15	-12	i
O=C(COC(=O)c1ccc2c(c1)OCO2)NC1CCCCC1	0.71	-0.4	-9	3.9	9	nt	nt	nt	i
Cc1cc(C)c(S(=O)(=O)NCCn2c(C)cc3ccccc32)c(C)c1	0.79	-9.7	11	2.6	nt	-6	0	33	i
S=c1nc(-c2ccc(Br)cc2)[nH]c2ccccc12	0.73	-2.1	2	0.3	-3	17	6	-2.9	i
O=C(NCCN1CCN(C(=O)c2ccccc2Cl)CC1)C(=O)NCc1ccccc1	0.7	-0.7	-2	0.6	-4	9	6	1.3	i
CCOc1ccc(OCCC(=O)OCC(=O)Nc2cc(C)nn2-c2ccccc2)cc1	0.68	1.3	1	0.9	23	5	0	1.3	i
C=CCC[C@@H](Cc1ccc(F)cc1)C(=O)OC[C@@H](NC(=O)[C@@H](CC=C)CC(=O)N[C@@H](CO)Cc1ccccc1)C(C)(C)C	nt	0.8	3	0.7	7	15	6	9.9	i
O=C(O)CC(C(=O)O)c1cn(Cc2ccccc2)c2ccccc12 (stereo not drawn)	0.74	1.3	-9	-2.0	9	nt	nt	nt	nt
Clc1cnc(Nc2cccnc2)c(Cl)c1	0.67	1.4	-10	1.1	1	-3	-8	-2.4	i
O=C(O)C1CCCCC1C(=O)Nc1ccc(S(=O)(=O)N2CCCCCC2)cc1 (stereo not drawn)	0.65	-2.2	4	0.5	1	-1	5	-1.0	i
Cc1cc[n+](-c2ccccc2)c2ccccc12	0.69	-4.7	14	2.4	-72	19	16	0.0	i
CC(CCc1ccccc1)NC(=O)c1nnc(Cc2ccc(F)cc2)o1 (stereo not drawn)	0.72	2.2	-2	5.7	nt	2	-9	1.6	i
CC(NC(=O)c1cccc(Br)c1)c1ccccc1 (stereo not drawn)	0.67	-1.1	-7	1.6	-9	-10	-14	-3.1	i
CCc1cc(=O)oc2cc(OCC(=O)N3CCCc4ccccc43)ccc12	0.66	0.8	-9	-4.3	-4	nt	nt	nt	nt
O=C(O)/C=C/C(=O)Nc1ccc(Cl)c(C(=O)O)c1	0.68	-6.7	2	4.6	-3	7	5	-0.2	i
O=C(Nc1ccccc1Cl)c1ccn[nH]1	0.7	-1.4	1	-2.4	-10	nt	nt	nt	nt
COc1ccc(CCN(C)c2ccc(C(N)=O)cc2[N+](=O)[O-])cc1OC	0.69	-3.2	-3	4.9	5	-23	-23	-1.2	nt
CC(C)CC(NC(=O)OC(C)(C)C)c1cn([C@@H](CCC(=O)OC(C)(C)C)C(=O)N2CCN(C(=O)OC(C)(C)C)CC2)nn1 (stereo partly drawn)	nt	-3.8	-1	5.3	-10	14	7	3.7	i
COc1ccc(C(C#N)Nc2ccccc2C)cc1 (stereo not drawn)	0.66	-5.0	-14	0.3	-2	nt	nt	nt	nt
CCCC(=O)OCC(=O)Nc1ccc2[nH]c(=O)[nH]c2c1	0.68	-1.2	-7	-1.4	-12	22	6	1.5	i
CCCCCCCNC(=O)CC(NS(=O)(=O)c1ccc(NC(C)=O)cc1)C(C)C (stereo not drawn)	0.68	-4.2	0	2.3	-6	nt	nt	nt	nt
S=C(NCc1ccc2c(c1)OCO2)Nc1ccc2nsnc2c1	0.59	10	7	3.4	-22	-13	-14	-0.9	i
CCOc1cc(-c2nc(-c3ccc(C)nc3OCC)no2)cc(OCC)c1OCC	0.75	7.1	10	-2.6	-3	nt	nt	nt	nt
O=C(CN1C(=O)C(=O)N(C2CCCC2)C1=O)Nc1cc(Cl)ccc1[N+](=O)[O-]	0.67	-2.4	-11	2.6	-1	nt	nt	nt	i
CCOC(=O)N1CCN(c2nnnn2-c2ccccc2)CC1	0.76	1.6	4	-1.6	3	nt	nt	nt	nt
Cc1cnc(C(=O)OCC(=O)Nc2ccc3c(c2)OCCO3)cn1	0.65	0.2	0	0.9	-6	nt	nt	nt	i
O=C(CSc1nnc(Cc2ccccc2)n1-c1ccc(Cl)cc1)N1CCOCC1	0.69	-0.6	0	2.0	-2	-3	-10	-0.5	nt
Cc1cc2nnc(SCC(=O)NCC3CCCO3)n2c2ccccc12 (stereo not drawn)	0.61	-0.1	0	-0.2	-9	-5	0	-0.6	i
CCc1nc2ccc(C(=O)N(C)CCN(C)C)cn2c1N(C)Cc1cc2ccccc2s1	nt	5.5	nt	nt	nt	-8	-37	-12	i
Cc1cc(NC(=O)Cc2cc(F)cc(F)c2)no1	0.66	-1.4	-9	3.5	-11	7	10	0.8	i
Cc1cc(C(=O)OCC(=O)Nc2ccccc2F)c(C)o1	0.7	3.0	6	1.0	1	nt	nt	nt	nt
CCCc1nnc(NC(=O)c2cccs2)s1	0.66	-1.5	-7	2.3	-12	nt	nt	nt	nt
CCNC(=O)C1(C)CCCN(C(=O)C2(c3ccc(Cl)cc3)CCCC2)C1 (stereo not drawn)	nt	2.1	nt	nt	nt	-2	-5	-2.0	+
Cc1ccc(CNC(=O)CSc2nnnn2C)cc1	0.69	-0.6	3	1.9	-24	nt	nt	nt	nt
Cc1ccc2nc(N3CCN(c4cccc(C)c4C)CC3)c3nnnn3c2c1	0.71	3.0	8	-79	-7	nt	nt	nt	nt
COc1ccc(/C=c2\s/c(=C\C(=O)C(C)(C)C)[nH]c2=O)cc1O	nt	7.6	7	nt	89*	-26*	-21*	6.5*	i
CC(=O)c1ccccc1OC(=O)c1ccc(-c2ccccc2)cc1	0.63	1.0	-4	8.9	-10	10	14	6.6	i
CCN(CC)c1cc(C)c2cc(NC(=O)c3cccs3)ccc2n1	0.67	5.9	40	0.7	-2	19	3	0.1	i
CCOC(=O)CC(=O)CSc1nc2c(C)c(C)ccc2cc1C	0.67	1.7	5	1.5	-1	nt	nt	nt	nt
O=C(Nc1cccc(C(F)(F)F)c1)c1cccnc1N1CCCC1	0.66	-0.4	-8	-2.0	-4	nt	nt	nt	nt
O=C(NN=Cc1ccc(O)cc1O)c1ccccc1NS(=O)(=O)c1cccs1	0.68	1.6	3	-5.4	64	-23	-29	-1.6	+
